KCNQ2 pot: potentiators of rat KCNQ2 potassium channel | actives 0.54% (n = 310,000) | CHO-K1 KCNQ2, FluxOR thallium flux fluorescence; stronger effect = higher value | B-score at 10 µM;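 active = fluorescence ratio B-score at least 3 SD of library B-scores, with initial fluorescence B-score within 3 SD, cut at about 5.3 in these data; same plate scores as AID 2156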;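 also: B-score of peak minus minimum over baseline fluorescence ratio after K+ and Tl+ stimulus; positive B-score means potentiation of KCNQ2 with more thallium influx and brighter signal; only the inactives scoring about 0 or higher are listed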
Target sequence (O88943 whole entry, looked up): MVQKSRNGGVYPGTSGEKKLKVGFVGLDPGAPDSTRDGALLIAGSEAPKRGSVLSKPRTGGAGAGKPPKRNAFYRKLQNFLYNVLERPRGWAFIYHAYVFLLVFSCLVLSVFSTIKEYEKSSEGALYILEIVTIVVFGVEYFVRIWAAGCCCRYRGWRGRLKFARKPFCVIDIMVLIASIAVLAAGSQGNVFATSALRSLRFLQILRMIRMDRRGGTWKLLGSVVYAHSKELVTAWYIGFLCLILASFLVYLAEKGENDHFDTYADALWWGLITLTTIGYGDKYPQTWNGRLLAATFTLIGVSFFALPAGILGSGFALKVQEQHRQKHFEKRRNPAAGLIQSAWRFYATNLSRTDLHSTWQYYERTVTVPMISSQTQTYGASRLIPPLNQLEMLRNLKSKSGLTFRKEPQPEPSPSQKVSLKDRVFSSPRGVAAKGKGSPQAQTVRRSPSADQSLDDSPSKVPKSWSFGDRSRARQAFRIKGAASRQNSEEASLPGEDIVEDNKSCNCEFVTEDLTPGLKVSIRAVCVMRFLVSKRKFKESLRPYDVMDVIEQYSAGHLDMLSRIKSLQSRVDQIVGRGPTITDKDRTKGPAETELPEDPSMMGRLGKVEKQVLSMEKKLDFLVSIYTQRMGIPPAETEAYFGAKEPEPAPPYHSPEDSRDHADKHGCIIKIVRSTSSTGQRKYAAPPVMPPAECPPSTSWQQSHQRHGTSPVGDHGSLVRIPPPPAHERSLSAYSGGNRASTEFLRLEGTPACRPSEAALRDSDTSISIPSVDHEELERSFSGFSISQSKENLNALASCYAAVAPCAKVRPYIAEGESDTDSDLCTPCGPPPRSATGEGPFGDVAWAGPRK
KCNQ2 pot baseline: also measured in KCNQ2 pot; calls as there; B-score; compound at 10 µM; measured here: initial fluorescence intensity artifact check;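 brightness before thallium and not channel activity; 0 = typical well and far values either way flag optical interference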
Active calls of the source: *. Not all compounds are listed; rates above refer to the full screens.

SMILES	KCNQ2 pot	KCNQ2 pot baseline
C=CCNc1ncnc2ccccc12	1.1	-0.01
COc1cccc(CC(=O)OC(C)C(=O)Nc2ncc(Cl)cc2Cl)c1 (configuration not stated)	1.6	-0.89
CCOC(=O)c1c(C)[nH]c(C)c1C(=O)COC(=O)/C=C/c1ccc(Cl)cc1	0.05	-0.16
CC1=C(C(=O)N2CCCCC2)C(c2cccs2)NC(=O)N1 (configuration not stated)	0.75	2.7
COCc1ccc(CN2CCCC(CO)(Cc3ccccc3)C2)o1 (configuration not stated)	0.21	-1.6
COc1ccc(N2CCN(C(=O)c3ccc(N4C(=O)NC5CC4(C)Oc4ccccc45)cc3)CC2)cc1 (configuration not stated)	0.07	-0.63
COC(=O)CSc1nnc2cc(C)c3ccccc3n12	1.4	2.4
CCOCCCNC(=O)C(Cc1ccccc1)NC(=O)c1ccco1 (configuration not stated)	0.06	-0.95
CCc1ccccc1Nc1nc(-c2cccnc2)cs1	0.15	0.02
O=C(Nc1nccs1)C1CCCN1S(=O)(=O)c1cccc2cccnc12 (configuration not stated)	0.17	1.2
Cc1ccc(-c2n[nH]c3c2C(c2cccc(O)c2)N(c2ccc(C(=O)O)cc2)C3=O)cc1 (configuration not stated)	0.17	0.55
CC(=O)Nc1ccc(NC(=O)C2C3C=CC(C3)C2C(=O)O)cc1 (configuration not stated)	0.19	1.3
CC(C)CC(=O)NC1(C(F)(F)F)C(=O)N(CC(C)C)C2=C1C(=O)CC(C)(C)C2 (configuration not stated)	0.16	-0.31
CN1CCN(C2CCCCC2NS(=O)(=O)c2ccc(Cl)cc2)CC1 (configuration not stated)	1.9	-0.82
CC1CCCCN1C(=O)Nc1cccc(C(F)(F)F)c1 (configuration not stated)	2.5	0.17
Cc1cccc(N2C(N)=NC(N)=NC23CCCCC3)c1	1	-0.02
CCCCC(CCC(=O)Nc1ccc(C(=O)OC)cc1)C(=O)O (configuration not stated)	1	0.51
S=c1[nH]nc(C2CCCCC2)n1/N=C/c1cccs1	0.09	0.07
Cc1ccc(NC(=O)CSCC(=O)NC2CCCCC2)cc1	0.57	0.73
O=C(O)Cn1cnc2ccccc2c1=O	1.1	-0.55

Entries of single compounds as entered above:
Cc1ccc(-c2n[nH]c3c2C(c2cccc(O)c2)N(c2ccc(C(=O)O)cc2)C3=O)cc1 (configuration not stated) as listed: KCNQ2 pot: 0.17; KCNQ2 pot baseline: 0.55
COCc1ccc(CN2CCCC(CO)(Cc3ccccc3)C2)o1 (configuration not stated) as listed: KCNQ2 pot: 0.21; KCNQ2 pot baseline: -1.6

Following part:
SMILES	KCNQ2 pot	KCNQ2 pot baseline
CCN(CC)CC(=O)NN(Cc1ccccc1)c1ccccc1	0.51	0.44
COc1ccc(NC(=O)C2CCN(c3nc(C)nc4c3CCC4)CC2)cc1	0.05	0.9
C/C(=N/Nc1ncc(C(F)(F)F)cc1Cl)c1ccncc1	0.01	-0.29
COc1ccc(Br)cc1C(=O)NC(=S)Nc1ccc2[nH]c(=O)[nH]c2c1	0.16	-0.02
CCC(=O)NNc1ncnc2c1cnn2C	0.82	0.46
O=[N+]([O-])c1ccc(N=Nc2ccc(O)cc2O)cc1	2.4	-1.2
CC(=O)N/N=C/c1ccccc1OCCOc1cccc(C)c1	0.99	-0.1
CCC(C)[C@H](NC(=O)NCc1cccs1)C(=O)OC (some centres not stated)	0.08	-0.05
COc1cc(/C(C)=N\NC(=O)CSc2nc3ccccc3n2C)ccc1O	0.07	1.1
NC(=O)Cn1c(=O)n(CCC(=O)NCCSCc2ccccc2)c(=O)c2ccccc21	2.3	-1.3
Cc1csc(NC(=O)NCC2CCCC(CNC(=O)Nc3nc(C)cs3)C2)n1 (configuration not stated)	0.39	-1.5
Cc1cc(N2C(=O)C3CC=CCC3C2=O)cc(C)c1Br (configuration not stated)	3.2	-0.51
Cc1c(OC(C)C(=O)NCC2CCC(C(=O)O)CC2)ccc2c(-c3ccccc3)cc(=O)oc12 (configuration not stated)	0.62	-0.15
CCn1cc(C(=O)NCc2cccnc2)c(=O)c2cc(F)c(N3CCN(C(=O)c4ccco4)CC3)cc21	0.51	3.2
Cc1cccn2c(=O)c(/C=N/O)c(NCc3ccccc3)nc12	1.8	-0.83
CN(C)CCCn1c(N)c(C#N)c2nc3ccccc3nc21	0.67	0.14
Cc1cc(C)cc(OCC(O)CN2CC(C)OC(C)C2)c1 (configuration not stated)	0.08	1.7
O=c1nc2ccccc2c2n1CC(CN1CCN(c3ccc(F)cc3)CC1)N2 (configuration not stated)	0.32	-2.1
COc1cc(NC(=O)CSc2nnc3c(n2)[nH]c2ccc(S(=O)(=O)NC(C)C)cc23)cc(OC)c1OC	1.3	-0.08
CC(Oc1ccccc1)c1ccnc2nc(N3CCOCC3)nn12 (configuration not stated)	0.54	0.45
CCOC(=O)/C=C1\CC(=O)Nc2cc(C)c(C)cc2N1	0.64	-0.33
c1cc(-c2ccncc2)ccn1	0.02	-0.08
CC(=O)Nc1ccc(NC(=O)COC(=O)c2ccccc2SCC(=O)N2CCCC2)cc1	0.6	-1.2
O=Cc1cnc(N2CCN(Cc3ccccc3)CC2)s1	0.42	0.5
CN1CCN(c2nc(-c3ccccc3)nc(-c3ccc(F)cc3)c2C#N)CC1	0.95	-0.52
Cc1cc(Cl)ccc1NC(=S)N1CCOCC1	2	-1.1
COc1ccc(OC)c(NC(=O)C2CCCNC2=O)c1 (configuration not stated)	0.16	-0.43
CC(CCc1ccccc1)NC(=O)COC(=O)c1ccc(NC(N)=O)cc1 (configuration not stated)	1.8	-0.36
Cc1cc(C=NCCCO)c(C)n1-c1cc(Cl)ccc1Cl	0.31	-1.4
O=C(Nc1nc2ccccc2s1)C1CC(=O)N(c2ccc(Br)cc2)C1 (configuration not stated)	0.21	-0.98
Clc1ccc(-c2nn3cnnc3s2)c(Cl)c1	0.09	-1.2
Cc1cc(-c2ccccc2)nc(SCc2ccc(C(=O)O)o2)n1	0.39	-0.76
COCC(C)n1c(COc2ccccc2F)nnc1SCC(=O)Nc1oc(C)c2c(C)n[nH]c(=O)c12 (configuration not stated)	1.6	-0.56
CCN(CC)CCCN(Cc1cc2cc3c(cc2[nH]c1=O)OCO3)C(=S)NCc1ccco1	1.5	-2
CNC(=O)CCc1nc(-c2ccc(C(C)(C)C)cc2)no1	0.67	-1.7
CCCN1C(=O)c2ccc(C(=O)NC3CCCCC3)cc2C1=O	2.3	-0.31
O=C(Oc1cc(Cl)cc(Cl)c1)c1cnc2n(c1=O)CCS2	0.35	-0.67
C=CCn1c(N)cc(=O)nc1SC(CC)C(=O)Nc1ccc(C(C)=O)cc1 (configuration not stated)	1.6	-3
Cc1ccc([N+](=O)[O-])cc1-c1ccc(/C=N/NC(=O)c2cc3c(ccc4ccccc43)o2)o1	1	1.6
Cc1ccc(-c2nc(C#N)c(NCCN3CCCCC3)o2)cc1	0.03	-0.33
Cc1cc(C)n(-c2ccc(F)cc2)c(=O)c1C(=O)O	0.14	0.13
Oc1ccc(Br)cc1/C=N/n1cnc2ccccc21	1.1	1.9
Cc1nc(-c2ccc(C#N)cc2)cs1	0.27	0.03
CCOC(=O)C1CCN(C(=O)Cn2cnc3sc(C)c(S(=O)(=O)N4CCOCC4)c3c2=O)CC1	0.3	-2.3
COC(=O)Cn1c(=NC(=O)c2cc(OC)c(OC)c(OC)c2)sc2cc(OC)ccc21	1.3	-0.87
O=C(Cc1n[nH]c(=O)c2ccccc12)OCc1c(Cl)cccc1Cl	0.85	-0.2
CCOC(=O)N1CCC(NC(=O)Cn2ncc3c2-c2cc(C)ccc2OC3)CC1	0.93	2.3
O=C1NCCC12C(=O)Nc1ccccc12 (configuration not stated)	0.92	0.17
CCCCOC(=O)n1c(=O)oc2ccccc21	0.66	-0.08
COc1ccc(C)cc1S(=O)(=O)Nc1ccc2c(c1)N(C(C)=O)CCC2	0.7	-0.79
CCS(=O)(=O)N1CCN(CC(=O)NC2CCCCC2)CC1	2.5	0.08
Cc1ccc2c(c1)nnn2C1CCN(S(=O)(=O)c2ccc3ccccc3c2)CC1	0.2	3.5
CC1CCc2c(sc(NC(=O)c3ccc(Cn4cc([N+](=O)[O-])cn4)o3)c2C#N)C1 (configuration not stated)	0.2	0.04
Cc1ccc(S(=O)(=O)N2CCC[C@H]2C(=O)OCC(=O)c2ccc3c(c2)NC(=O)CO3)cc1	0.82	-0.53
COc1ccc(NC(=O)CN(C)S(=O)(=O)c2ccc(Br)s2)cc1OC	0.2	1.1
Cc1cc(NS(=O)(=O)c2ccc(NC(=S)NC(=O)c3ccc(Cl)cc3Cl)cc2)no1	0.42	-0.87
CCOc1cc(CN2CCCCC2)ccc1OC	0.99	0.04
Cc1cc(C)c(S(=O)(=O)Nc2c(C)[nH]c(=O)[nH]c2=O)c(C)c1	0.6	-0.57
CCOC(=O)Cn1c(=O)oc2cc(S(=O)(=O)NCC3CCCO3)ccc21 (configuration not stated)	1.3	-0.32
COc1cccc(CNC(=O)C2CCN(S(=O)(=O)c3ccc4c(c3)CC(C)N4C(=O)C3CC3)CC2)c1 (configuration not stated)	0.25	0.61
Other compounds follow:
SMILES	KCNQ2 pot	KCNQ2 pot baseline
O=C(c1ccc(S(=O)(=O)Nc2ccccc2F)cc1)N1CCCCCC1	0.03	0.65
O=C(COc1ccccc1)Nc1nnc(S(=O)(=O)N2CCCCC2)s1	0.7	0.9
CC(=O)c1sc(NC(=O)COc2ccc(C(C)C)c(C)c2)nc1C	1.7	-1.8
O=C(Nc1cccc([N+](=O)[O-])c1)N1CCN(c2ccccc2)CC1	0.31	-0.66
COc1ccc(N2CCN(C(=O)c3ccc(CS(=O)Cc4ccc(Cl)cc4)o3)CC2)cc1 (configuration not stated)	0.03	2
COc1cccc(-c2nc3ccc(C(=O)N4CCCC(O)C4)cc3o2)c1 (configuration not stated)	1.3	-0.01
CCCCNC(=O)c1cc2c(=O)n(CC)c3ccccc3c2s1	0.02	-0.98
COc1ccc(-n2c3c(cc(C(=O)Nc4ccc(C)cc4)c2=O)C(=O)CCC3)cc1	0.22	-0.05
CC(/C=C/c1ccc2c(c1)OCO2)=N/NC(=O)COc1ccc(C)cc1	1.2	0.21
COc1cc(C(=O)CSc2nncn2C)cc(OC)c1OC	1.3	-0.59
CC(=O)c1ccc(NC(=O)CN2C(=O)/C(=C/C=C/c3ccccc3)SC2=S)cc1	0.81	-1.9
Cc1ccsc1/C=N\NC(=O)Cn1nnc2ccccc21	0.93	-0.36
COC(=O)c1c(NC(=O)c2nc3nc(C)cc(C(F)F)n3n2)sc2c1CCC2	0.57	-0.5
Cc1ccc(-n2c3c(cc(C(=O)N4CCN(C)CC4)c2=O)C(=O)CC(C)(C)C3)cc1	0.46	1
CN(C(=O)COC(=O)C1CSC2(C)CCC(=O)N12)c1ccccc1 (configuration not stated)	0.16	0.55
CN(C)c1ccc(C(CNC(=O)c2ccco2)N2CCCC2)cc1 (configuration not stated)	0.04	0.09
Cc1ccc(/C=N/OC(=O)c2nn(C)cc2Cl)cc1	1.1	-0.6
COc1ccc(CN(CCO)CCO)cc1[N+](=O)[O-]	0.17	1.4
Cc1cccc(-n2c(C)nc3c(cnn3-c3ccc(F)cc3)c2=O)c1	0.38	0.98
O=C(CCC1CCCCC1)NNC(=O)c1cnccn1	0.69	0.29

Another view of 7 compounds above.
KCNQ2 pot | KCNQ2 pot baseline | smiles
0.7 | 0.9 | O=C(COc1ccccc1)Nc1nnc(S(=O)(=O)N2CCCCC2)s1
1.7 | -1.8 | CC(=O)c1sc(NC(=O)COc2ccc(C(C)C)c(C)c2)nc1C
0.31 | -0.66 | O=C(Nc1cccc([N+](=O)[O-])c1)N1CCN(c2ccccc2)CC1
0.03 | 2 | COc1ccc(N2CCN(C(=O)c3ccc(CS(=O)Cc4ccc(Cl)cc4)o3)CC2)cc1 (configuration not stated)
1.3 | -0.01 | COc1cccc(-c2nc3ccc(C(=O)N4CCCC(O)C4)cc3o2)c1 (configuration not stated)
0.02 | -0.98 | CCCCNC(=O)c1cc2c(=O)n(CC)c3ccccc3c2s1
0.22 | -0.05 | COc1ccc(-n2c3c(cc(C(=O)Nc4ccc(C)cc4)c2=O)C(=O)CCC3)cc1

The list continues.
SMILES	KCNQ2 pot	KCNQ2 pot baseline
COc1ccc(Cl)cc1NC(=O)c1cccnc1	1.1	-0.03
O=C(COC(=O)c1n[nH]c(=O)c2ccccc12)c1ccc(Br)cc1	0.72	0.12
CC1CCN(C(=O)Cn2cc(C(=O)C3CC3)c3ccccc32)CC1	0.01	0.06
COc1ccccc1NC(=O)CSc1ccc(-c2ccco2)nn1	1.4	-1.3
CC(=O)c1ccc(NC(=O)COC(=O)CCC(=O)c2cccs2)cc1	0.37	-1.4
Cc1nc(C)c(C(=O)N/N=C/c2c[nH]c3ccccc23)s1	2	0.58
O=c1cc(C(F)(F)F)[nH]c2c(C(F)(F)F)cccc12	2.7	2.3
CCOC(=O)COc1nc2c(c(-c3ccco3)c1C#N)CCc1ccccc1-2	10*	-1.1*
COc1cc2[nH]c(=O)n(CCCCCC(=O)NCCCN3CCOCC3)c(=O)c2cc1OC	0.95	0.88
CCN(CC(=O)Nc1ccc(NC(C)=O)cc1)C(=O)C1CCC1	1	0.12
COc1ccc(CCNC(=O)C2CCN(C(=O)N(C)C)CC2)cc1OC	0.33	0.5
Cc1nc(-c2ccc3c(c2)OCCCO3)cs1	0.3	-0.42
Cn1nc(C(=O)OCC(=O)NCCc2ccccc2)c2ccccc2c1=O	1.5	2.4
CCc1c(C(=O)NNC(=S)NC2CCCCC2)csc1C	0.06	1.4
CCOc1cccc(OCCCCn2cnc3ccccc3c2=O)c1	0.72	-0.71
COc1ccc(NC(=O)Cn2c(=O)oc3cc(S(=O)(=O)N4CCCC4)ccc32)c(OC)c1	1.4	-2
O=C1CSC(=Nc2ccccc2Cl)N1	0.64	-0.4
Cc1cc(C)c(NC(=O)C(C)(C)C)c(Cl)c1	0.24	2.8
COc1cc(C(=O)NNC(=O)Nc2ccc([N+](=O)[O-])cc2)cc(OC)c1OC	0.06	0
